H5N1 antiviral – antiviral screen in MDCK cells, H5N1 avian flu; cytopathic effect, luminescence, 72 h; active compounds read high; no value below 0 was filed and about half of the inactive calls have no number; reference of the scale not given here; inhibition, % at 50 µM; actives 0.07% (n = 96,000); AID 740; in the data active = inhibition above about 25%
* marks the source's active call; other numbers are inactive results; i = inactive. A portion of the library. The share of hits here may be higher or lower than overall.

SMILES	H5N1 antiviral
CCc1ccc(NC(=O)CSc2nnc(CNC(=O)c3c(F)cccc3Cl)o2)cc1	i
CC(=O)N1CCCc2cc(S(=O)(=O)NCCC3=CCCCC3)ccc21	1.1
CCCC(=O)N1CC2(CCC)CN(C(=O)CCC)CC(CCC)(C1)C2=O	i
CCCCNC(=O)CC(=O)Nc1ccccc1C(=O)O	i
O=C(O)c1cc2c(ccc3ccccc32)oc1=O	i
CC1C(C#N)=C(N)OC2=C1C(=O)CCC2 (stereo unspecified)	i
O=C1CN(C(=O)COC(=O)c2ccccc2NCc2ccco2)c2ccccc2N1	0.4
Cc1cc(C)c(C)c(S(=O)(=O)Nc2ccc(OCC(=O)O)cc2)c1C	0.1
Fc1cccc(Cl)c1Cn1nnc2c(-n3ccnc3)ncnc21	i
Cn1c(=O)cc(SCC(=O)N2CCN(c3ccccn3)CC2)c2ccccc21	i
O=C(NC1CC1)c1sccc1-n1cccc1	i
O=S1(=O)N=C(N2CCCc3ccccc32)c2ccccc21	2.0
Cn1cc(S(=O)(=O)NCc2ccco2)c(=O)n(C)c1=O	i
CCOC(=O)C1(CC)NC(c2ccc(N(C)C)cc2)C2C(=O)N(C)C(=O)C21 (stereo unspecified)	i
Oc1c(Cl)cc(Cl)cc1C(C#Cc1ccccc1)N1CCOCC1 (stereo unspecified)	1.0
CC[N+](CC)(CC)C/C(N)=N/O	1.1
COc1ccc(Cc2nc(-c3cccs3)no2)cc1OC	0.9
COc1ccc(NC(=O)c2ocnc2C)cc1OC	i
CC(=O)OCC1OC(n2ccc(=O)[nH]c2=O)C(O)C1O (stereo unspecified)	1.1
COC(=O)c1sccc1NC(=O)CSc1nnnn1-c1ccccc1F	1.4
COc1ccc(OC)c(S(=O)(=O)NCCO)c1	0.3
CC12CC3CC(C)(C1)CC(C(=O)Nc1nn[nH]n1)(C3)C2	i
C=C(C)COc1ccc2oc(C)c(C(=O)OCCOC)c2c1	0.6
O=S(=O)(Nc1ccc(O)c(Sc2nc3ccccc3s2)c1)c1ccc(Cl)cc1	i
O=C(Nc1cccc2cccnc12)c1cccnc1	i
(continued)
SMILES	H5N1 antiviral
COC(=O)C1=C(C)NC2=C(C(=O)CCC2)C1c1cn(Cc2ccc(Br)cc2)nc1-c1ccccc1 (stereo unspecified)	i
Cc1ccc(-c2nc(CS(=O)CC(=O)NC3CCC(C)CC3)c(C)o2)cc1 (stereo unspecified)	0.9
CSc1nc(C)cc(OCC(=O)n2nc(C)cc2C)n1	i
CCCCOc1ccc(Cl)cc1CSc1nnc(C)n1N	1.0
O=C(c1cccc(F)c1)N1CCN(Cc2c[nH]c3ccccc23)CC1	i
Cc1nnc(SCc2ccccc2Cl)n1CC1CCCO1 (stereo unspecified)	0.8
Cc1ccc2c(c1C)NC(=O)C2(O)CC(=O)c1ccc2c(c1)OCO2 (stereo unspecified)	i
O=C(O)CCN=C1CCCc2ccccc2N1	0.3
CC12CCC(C(=O)NCc3ccccc3)(OC1=O)C2(C)C (stereo unspecified)	0.6
COc1ccc(C(=O)COC(=O)c2ccc(OC)c(OC)c2)cc1OC	0.5
CCOC(=O)c1c(C)n(C)c2ccc(OC)c(NC(=O)CN3CCN(Cc4ccccc4)CC3)c12	0.3
COc1ccc(C2=Nn3c(nnc3-c3ccncc3)SC2)cc1	11.2
Cc1ccc(-c2nnc(Nc3ccc4c(c3)nc(C)n4C)c3ccccc23)cc1	i
COCCCNS(=O)(=O)c1ccc2c(c1)CCN2C(C)=O	0.6
O=C(CSc1nc2c(c(=O)[nH]1)CCCC2)Nc1ccc(Cl)cc1F	0.2
COc1ccc(CCNC(=O)C2CCCN2C(=O)NC2CCCCC2)cc1OC (stereo unspecified)	i
Cc1csc(Sc2ccc([N+](=O)[O-])cc2C(=O)OCC(=O)NC(=O)NC(C)(C)C)n1	0.5
COC(=O)C1CSC(C(=O)OC)N1C(=O)CN1CC(C)OC(C)C1 (stereo unspecified)	0.4
Cc1c(/C(O)=C2/C(=O)C(=O)N(CCN3CCOCC3)C2c2cccnc2)cnn1-c1ccccc1 (stereo unspecified)	i
Cc1onc(-c2ccccc2)c1C(=O)Nc1ccon1	0.3
CCOC(=O)c1ccc(NC(=O)C2=C(C)Nc3nc(CCCO)nn3C2c2cccc(C)c2)cc1 (stereo unspecified)	i
CCCCc1ccc(-c2c(C#N)c(N)nc3c2CCCC3)s1	0.1
CCCCC(=O)Nc1ccc(C(=O)N2CCN(c3ccccc3OC)CC2)cc1	i
Cn1c(O)c(C=NC2CC3CCC2(C)C3(C)C)c(=O)[nH]c1=O (stereo unspecified)	2.2
CCOC(=O)C1CCN(C(c2ccc(OC)c(OC)c2)c2sc3nc(C)nn3c2O)CC1 (stereo unspecified)	0.7
Next part.
SMILES	H5N1 antiviral
CN(CC(=O)Nc1nc2ccccc2s1)S(=O)(=O)c1ccc(Br)cc1	1.2
O=C(C1CCN(S(=O)(=O)N2CCC3(CC2)OCCO3)CC1)N1CCN(Cc2ccccc2)CC1	i
CCCCOC(=O)c1cc(C)nc2ccc(Br)cc12	i
Nc1cccc(Nc2nc(OC(C(F)(F)F)C(F)(F)F)nc(OC(C(F)(F)F)C(F)(F)F)n2)c1	0.2
O=C(c1ccc2c(c1)ncn2C1CCCCCC1)N1CCC2(CC1)OCCO2	i
CC1=C(C(=O)N2CCCCC2)C(c2cccs2)C2=C(CCCC2=O)N1 (stereo unspecified)	i
Cc1cc2cc3c(cc2nc1SCC(=O)OC(C)C)OCCO3	i
O=C(Nc1ccccc1C(=O)Nc1ccc2c(c1)OCO2)c1cccs1	i
C=CCNc1sc(C(=O)c2ccc(C)cc2)c(N)c1C#N	2.6
COc1ccc(OC)c2sc(NC(=O)c3ccc(Br)s3)nc12	i
CCCOc1ccc(-c2nc(OC)c3ccccc3n2)cc1	i
O=C(Nc1cccnc1)c1ccco1	1.6
CCn1nc(C(=O)OCC(=O)c2cc(C)n(Cc3cccs3)c2C)c2ccccc2c1=O	1.5
COc1ccccc1NC(=O)C1=C(C)Nc2nnnn2C1c1ccccn1 (stereo unspecified)	0.1
O=C(O)c1ccc(Sc2nnc(-c3cccc(Br)c3)o2)c([N+](=O)[O-])c1	0.2
CSc1nnc(-c2ccccc2)n1C	i
COc1cc2c(cc1OC)C(=S)NC(C)(C)C2	1.0
CC(=O)Nc1ccc(NC(=O)C2CC(=O)N=C(N)S2)cc1 (stereo unspecified)	1.2
COc1ccc(CNc2nc3nc(C)cc(C)n3n2)cc1OC	0.3
CCOc1ccc(NC(=O)N(CCC(C)C)C(C)c2ccco2)cc1 (stereo unspecified)	i
O=C(CSc1nnc(Cc2cccs2)n1C1CCCCC1)N1CCN(C(=O)c2ccco2)CC1	0.7
C=CCOC(=O)C1=C(C)NC(=O)NC1c1ccc(OC(=O)c2ccco2)c(OC)c1 (stereo unspecified)	2.4
COc1cc2c(cc1OC)C(c1cccc(OC)c1OC)CC(=O)N2 (stereo unspecified)	0.9
CCN(CC)CC(=O)N(CC(=O)Nc1c(C)cc(C)cc1C)C1CCCCC1	0.4
CCOC(=O)c1c(N)sc2c1CCS(=O)(=O)C2	1.2
(further entries)
SMILES	H5N1 antiviral
CCN(Cc1ccccc1)Cc1cc(OC)cc(OC)c1	i
Cc1cccc(C)c1NC(=O)CSCc1cccc(CSCC(=O)Nc2c(C)cccc2C)n1	i
COc1ccc2nc(C)cc(N3CC(C)OC(C)C3)c2c1 (stereo unspecified)	0.7
Cc1nc(CC(=O)N2CCN(c3cccc(C)c3C)CC2)cs1	0.7
N#Cc1cnn2c(-c3ccccc3)ccnc12	1.6
COc1cccc(NC(=O)CSC2=C(C#N)C(c3ccco3)C3=C(CCCC3=O)N2)c1 (stereo unspecified)	i
C=CCN(CC=C)S(=O)(=O)c1ncn[nH]1	0.2
CC1=NN(C(=O)c2ccc(C)cc2)C(O)(C(F)(F)OC(F)(F)F)C1 (stereo unspecified)	4.7
NC(=O)CSc1nnc(-c2cccs2)n1-c1ccccc1	1.9
C/C(=N\NC(=O)c1c[nH]c2ccccc12)c1ccco1	i
C=CCNC(=O)C1CCN(S(=O)(=O)c2ccccc2)CC1	i
Nc1ccc2c(C(F)(F)F)cc(=O)oc2c1	i
CC1CCCCC1NC(=O)C1CCN(S(=O)(=O)N2CCOCC2)CC1 (stereo unspecified)	0.2
CC(=C/c1ccccc1)/C=N/n1c(-c2ccco2)n[nH]c1=S	1.2
Cc1cc(NC(=O)COC(=O)C2CCN(S(=O)(=O)c3ccc(Cl)cc3)CC2)no1	0.2
CCOC(=O)c1cn(-c2ccccc2CO)c2c(F)c(F)c(F)cc2c1=O	i
CCOC(=O)c1cnc2ccc(C)cc2c1OCc1cc(F)cc(F)c1	i
Cc1ccc(N2C(=O)CC2(C#N)c2ccc(OCc3ccccc3)cc2)cc1 (stereo unspecified)	1.5
CCOc1ccc(C2Oc3nc(SC)nnc3-c3ccccc3N2C(C)=O)cc1OC (stereo unspecified)	i
O=C(COC(=O)COc1ccc(Nc2ccccc2)cc1)NCc1ccco1	i
NC(=O)c1ccc(-c2ccc(Br)cc2)o1	i
CCOC(=O)N1CCN(C(=O)c2ccc(C)c(S(=O)(=O)Nc3cccc(C)c3C)c2)CC1	1.4
N#CC1=C2N=C(N)c3c(sc4c3CCCCC4)N2C2=C(C(=O)CCC2)C1c1ccccc1 (stereo unspecified)	0.1
C=CCOc1c2ccc(C(=O)NCCc3ccc(C)cc3)cc2nn1C	0.3
CC(=O)Nc1nc(-c2ccc(Cl)cc2)nc(C)c1C(C)=O	0.3

In a second layout: results already given.
Structure | H5N1 antiviral
C=CCN(CC=C)S(=O)(=O)c1ncn[nH]1 | 0.2
C=CCOc1c2ccc(C(=O)NCCc3ccc(C)cc3)cc2nn1C | 0.3

Pulled by compound from above, 5 records:
SMILES	H5N1 antiviral
COc1ccc2nc(C)cc(N3CC(C)OC(C)C3)c2c1 (stereo unspecified)	0.7
C=CCOc1c2ccc(C(=O)NCCc3ccc(C)cc3)cc2nn1C	0.3
CCOC(=O)c1cn(-c2ccccc2CO)c2c(F)c(F)c(F)cc2c1=O	i
CCOc1ccc(C2Oc3nc(SC)nnc3-c3ccccc3N2C(C)=O)cc1OC (stereo unspecified)	i
CCN(Cc1ccccc1)Cc1cc(OC)cc(OC)c1	i

(next part)
SMILES	H5N1 antiviral
COc1ccc2c(=O)c3c(=O)n(Cc4ccco4)c(-c4ccco4)nc3oc2c1	3.5
O=S(=O)(c1cccc2nsnc12)N1CCCC1	i
CC(C)NC(=O)CC(c1ccccc1)c1cc(Br)ccc1O (stereo unspecified)	i
Cc1cc(N2CCN(C(=O)c3ccco3)CC2)n2nc(-c3cccc(Cl)c3)cc2n1	1.9
CCCCCCC(=O)N(O)C1CC(=O)N(c2ccc(C)cc2)C1=O (stereo unspecified)	i
COc1ccccc1NC(=O)C(=O)NCC1COc2ccccc2O1 (stereo unspecified)	i
CCOC(=O)c1nn(-c2cccc(Cl)c2)c(C)c1C(C)=O	i
CCOC(=O)c1cnn(CCOC(=O)C(C)(C)C)c1NC(=O)C(C)(C)C	0.6
COc1ccc(Br)cc1CNC(=O)C1CCCN(S(C)(=O)=O)C1 (stereo unspecified)	i
CCOC(=O)N1CCN(C(=O)c2cc(C)c3c(C)nn(-c4ccccc4)c3n2)CC1	i
O=C1CC(N2CCOCC2)C(=O)N1Cc1ccc(N2CCCC2=O)cc1 (stereo unspecified)	0.6
Cc1c(C(=O)N2CC(C)OC(C)C2)sc2nc(-c3ccc(F)cc3)cn12 (stereo unspecified)	2.8
CC1CCN(C(=O)COC(=O)[C@H](C)NS(=O)(=O)/C=C/c2ccccc2)CC1	1.9
Cc1sc2ncnc(OCC(=O)NCc3cccs3)c2c1C	i
O=C(O)CCC(=O)Nc1nnc(C(F)(F)F)s1	i
Cc1ccc(C)c(-n2c(Cc3cc(=O)[nH]c(=O)[nH]3)nnc2SCC(=O)NCC2CCCO2)c1 (stereo unspecified)	i
N=c1sccn1CC(=O)Nc1ccccc1Oc1ccccc1	i
CC(C)(C)C(=O)NCCn1ccc2ccccc21	1.6
COc1cc(-c2cn[nH]c2N)cc(OC)c1OC	0.1
Cc1ccccc1NC(=O)CSc1[nH]c(=O)cc(C)c1C#N	2.5
Cc1n[nH]c(C)c1CCOc1ccc(C(C)C)cc1	2.5
CCCCSc1nsc(NC(C)=O)n1	2.4
CCOC(=O)CCCn1c(C)nc(=O)c(-c2ccccc2)c1C	1.7
S=C(Nc1ccc2c(c1)OCO2)NC1CCN(Cc2ccccc2)CC1	i
CC(=O)c1c(C(C)=O)c(C)n(NC(=O)c2ccc(Cl)cc2)c1C	i
(next part)
SMILES	H5N1 antiviral
O=C(/C=C/c1ccc(O)cc1)c1ccc(NC2=C(N3CCCCC3)C(=O)c3ccccc3C2=O)cc1	16.8
CSCC[C@H](NC(=O)C1CCN(S(=O)(=O)c2ccc(C)cc2)CC1)C(=O)NCc1ccco1	i
CC(/C=C/C=C/c1ccccc1)=N/NC(=O)CNc1ccc(C)cc1	0.1
CCOc1ccc(CCNC(=O)c2cc3sccc3n2CC)cc1OCC	i
O=C(NC12CC3CC(CC(C3)C1)C2)c1ccc(-c2ccccc2Cl)o1	2.5
Cc1nn(C)c(Oc2cccc(Cl)c2)c1C(=O)Nc1ccc(F)cc1F	i
Fc1ccc2nc(-c3ccccc3)nc(SCc3nnc(-c4ccccc4)o3)c2c1	i
Cc1nc(-c2ccc(C(=O)N3CCOCC3)cc2)cs1	0.4

An excerpt from above in order of SMILES length, low to high:
SMILES	H5N1 antiviral
CCCCCCC(=O)N(O)C1CC(=O)N(c2ccc(C)cc2)C1=O (stereo unspecified)	i
Cc1ccc(N2C(=O)CC2(C#N)c2ccc(OCc3ccccc3)cc2)cc1 (stereo unspecified)	1.5
CCOc1ccc(C2Oc3nc(SC)nnc3-c3ccccc3N2C(C)=O)cc1OC (stereo unspecified)	i

Another view of part of the listing above.
structure,H5N1 antiviral
O=C(/C=C/c1ccc(O)cc1)c1ccc(NC2=C(N3CCCCC3)C(=O)c3ccccc3C2=O)cc1,16.8
Fc1ccc2nc(-c3ccccc3)nc(SCc3nnc(-c4ccccc4)o3)c2c1,i
